Rango dissoc inh = prevents RanGTP from dissociating the Rango-importin beta complex; O95149+P62826; Biochemical FRET Rango-importin beta, RanGTP-induced dissociation; Potency, µM (titrated, usually from 46.1 µM), for the others: at the top dose activity change, negative = inhibition; hit rate 0.071% among 340,000; AID 540253; active means falling FRET ratio curve, often poorly fitted, with flat reads before Ran was added; inconclusive means other falling curves, or compound fluorescence or quenching; inactive means flat or rising ratio curve;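 further: potency means the concentration at half of the fitted maximal effect; % of control where 0% means no effect; nearly all actives have a fitted effect of over 45% in size; -100% = wells without RanGTP and RCC1; the record marks most hits as doubtful in a second field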
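Compounds preincubate 5 min with complex of recombinant Rango and importin beta in PBS with 1 mM DTT. Ran (0.6 uM) loaded with 2 mM GTP plus 0.2 uM RCC1 starts dissociation; FRET is recorded 45 min later.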
GLA inh pH 4.5 = alpha-galactosidase A (human) inhibition, pH 4.5; purified enzyme, 4-MU-alpha-Gal fluorescence, pH 4.5; AID 1467; 230,000 tested, under 10 active; activity change, negative = inhibition, % at 105 µM; P06280; inconclusive = small, poorly fitted or top-dose-only inhibition, or a rising curve; inactive = flat fitted curve, though single readings scatter; no compound was filed as active;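 further: 0% = full activity with enzyme and -100% = basal without enzyme; dose as in the result columns while the protocol names 77 µM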
Target sequence (P06280 whole entry, looked up): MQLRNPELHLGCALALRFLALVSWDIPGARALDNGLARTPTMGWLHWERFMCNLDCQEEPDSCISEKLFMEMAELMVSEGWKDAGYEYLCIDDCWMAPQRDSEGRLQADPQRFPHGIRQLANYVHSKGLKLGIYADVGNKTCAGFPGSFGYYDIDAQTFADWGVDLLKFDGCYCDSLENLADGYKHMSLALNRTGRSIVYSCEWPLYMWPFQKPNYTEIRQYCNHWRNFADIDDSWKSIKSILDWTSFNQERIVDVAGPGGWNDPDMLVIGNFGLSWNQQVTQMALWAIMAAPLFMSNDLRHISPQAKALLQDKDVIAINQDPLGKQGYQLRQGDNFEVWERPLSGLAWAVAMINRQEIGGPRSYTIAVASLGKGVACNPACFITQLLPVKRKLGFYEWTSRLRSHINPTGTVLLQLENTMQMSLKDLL
miR-21 FLuc = miR-21 reporter, rising signal | AID 2288 | HeLa miR-21 FLuc reporter, luciferase, 48 h | 340,000 tested, under 10 active | Potency, µM (titrated, usually from 38.3 µM), for the others: at the highest dose reporter change, positive = more light; active = well fitted rising curve with a large enough effect; inconclusive = small, poorly fitted or top-dose-only effect; inactive = no such curve, though single readings can be large or run the other way;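 further: % of control where 0% means no effect; miR-21 action dims this reporter so a rising signal means less miR-21 action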
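HeLa cells endogenously expressing miR-21, stably carrying CMV-driven firefly luciferase with a downstream miR-21 binding site, 2000 cells/well. Titrations up to approximately 40 uM, 48 hours; luciferase luminescence read.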
Rango-impB inh = prevents formation of the Rango-importin beta complex. Rango CFP/YFP FRET sensor + importin beta, 45 min. Potency, µM (doses to about 92.2 µM), for the others: top-dose inhibition of complex formation. hit rate 0.031% among 340,000. Q14974; active = rising FRET ratio curve, often small or poorly fitted; inconclusive = mostly compound fluorescence or quenching in the first reads; inactive = flat curves in all reads;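 further: potency means the concentration at half of the fitted maximal effect; 0% = DMSO wells and 100% = buffer wells lacking importin beta; nearly all actives have a fitted effect of over 15% in size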
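FRET biosensor Rango (snurportin 1 IBB between N-terminal EYFP and C-terminal Cerulean), 50 nM in PBS/1 mM DTT/0.02% Tween-20/0.1% BSA, preincubated 5 min RT with compound; 0.125 microM importin beta added, 45 min RT, CFP/YFP FRET ratio read.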
* = called active by the depositor; ? = inconclusive; . = not tested or not shown; & = joins results of further samples.

mol | Rango dissoc inh | GLA inh pH 4.5 | Rango-impB inh | miR-21 FLuc
Cn1c(SCC(=O)NC2CCCC2)nc2cccnc21 | -11% | 4 | -3.0% | 0%
CC1CCCCC1NC(=O)CCn1ccc2cc(S(=O)(=O)N3CCCC3)ccc21 (centres undefined) | -7% | . | -1.2% | 1%
COc1ccc(C(=O)OCC(=O)Nc2sccc2C(N)=O)cc1[N+](=O)[O-] | -1% | . | 0.1% | .
CC(C(=O)NCCc1ccc(Cl)cc1)n1c(=O)c2cccn2c2cccnc21 (centres undefined) | 16% | . | 0.0% | -2%
O=C(COC(=O)c1ccc(Br)o1)Nc1cccc(S(=O)(=O)N2CCCCC2)c1 | 9% | . | -3.7% | .
O=C(c1cccc(Br)c1)N1CCCc2ccccc21 | -5% | . | 0.2% | -1%
COC(=O)c1ccc(CO/N=C/c2ccc(OC)cc2)o1 | 0% | -9 | 2.3% | -25%
CS(=O)(=O)N(CC(=O)NCc1ccccn1)c1ccc2c(c1)OCCO2 | 5% | 8 | -3.2% | -8%
Cc1nn(-c2ccccc2)c(Cl)c1/C=N/NS(=O)(=O)c1ccc(Br)cc1 | 4% | -5 | 3.3% | -6%
CCCc1[nH]c2ccc(C(=O)OC)cc2c1CCC | 4% | . | 9.7% | 5%
CCC(c1nnnn1C(C)(C)CC)N(CCN1CCOCC1)Cc1cc2cc(C)ccc2[nH]c1=O (centres undefined) | -7% | -1 | -0.5% | -2%
Cc1ccc(C(=O)O)cc1-n1c(C)cc(C=O)c1C | -16% | 2 | ? | -1%
NS(=O)(=O)c1cc(C(=O)OCC(=O)Nc2ccccc2[N+](=O)[O-])ccc1Cl | -24% | 7 | 0.2% | -2%
Cc1ccc(-n2c(C)cc(C(=O)CSc3nnnn3C)c2C)cc1 | 11% | -8 | -3.5% | -14%
O=S(=O)(c1cccs1)N1CCN(c2ncccn2)CC1 | -13% | 3 | 0.0% | -33%
CCOc1ccc(S(=O)(=O)N(C)CC(=O)NCCN2CCOCC2)cc1 | 10% | . | -0.6% | -1%
CCN(CC)CCNC(=O)c1cc(Br)c(N)cc1OC | 2% | 1&2 | -1.9% | .
CC(NC(=O)CSc1nnc(-c2cccc(S(=O)(=O)N3CCCCC3)c2)o1)C12CC3CC(CC(C3)C1)C2 (centres undefined) | -3% | -7 | -0.9% | -5%
CNc1oc(-c2ccccc2)nc1S(=O)(=O)c1ccc(C)cc1 | 4% | . | 2.3% | -3%
CCCCC(=O)c1c(O)c2ccccc2oc1=O | 0% | 1 | -0.1% | -2%
COc1ccc(/C=C/C(=O)c2ccccn2)cc1 | ? | -5 | ? | -31%
O=C(Nc1ccc(S(=O)(=O)Nc2ncccn2)cc1)C1CC(=O)N(c2ccccc2)C1 (centres undefined) | 1% | . | 0.3% | .
COc1ccc(NC(=O)CCCc2nc3ccccc3c(=O)[nH]2)cc1Cl | -1% | . | -0.7% | .
CC(C)(C)SC(C(=O)N1CCOCC1)c1ccc(Br)cc1 (centres undefined) | 10% | . | 0.0% | 0%
O=c1c(-c2ccc3c(c2)OCCO3)coc2c(CN3CCOCC3)c(O)ccc12 | 2% | -2 | 1.5% | -47%
O=C(CCNC(=O)c1ccc(Cl)cc1)Nc1ccccc1Cl | 17% | . | -0.7% | -6%
CN(C)CCCNS(=O)(=O)c1ccc(Cl)s1 | -11% | 11 | -2.4% | -9%
Cc1ccccc1OCC(=O)NC(=S)Nc1ccc2c3c(cccc13)CC2 | -21% | 6 | 7.7% | 1%
Cc1ccc(S(=O)(=O)N2CCN(C(C(=O)Nc3ccc(F)cc3)c3ccccc3)CC2)cc1 (centres undefined) | -12% | -12 | -0.4% | 4%
Nc1ccc2[nH]ncc2c1 | -1% | -1 | ? | 12%
COc1cc(OC)cc(C(=O)c2c(C)c(C#N)c3ccccn23)c1 | -11% | . | -0.6% | 22%
CCCSc1nnc(N2C(=O)CC(c3ccsc3)C3=C2CCCC3=O)s1 (centres undefined) | 21% | 3 | 1.6% | -18%
O=C(O)c1ccc(NCc2ccc3c(c2)OCO3)cc1 | 17% | -5 | -0.7% | -24%
Cc1ccn2c(=O)nc(SCC(=O)c3ccccc3)nc2c1 | 10% | . | -6.1% | .
O=C(CCSc1nnc(-c2ccco2)o1)Nc1ccc(F)cc1 | 11% | 4 | -2.9% | 0%
Cc1cc(OCC(=O)OC(C)C(=O)Nc2ccc(N3CCOCC3)cc2)ccc1Cl (centres undefined) | -30% | . | ? | .
Cc1cccc(C(=O)OC(C)CN2C(C)CCCC2C)c1 (centres undefined) | -5% | . | 0.1% | 3%
CCCCc1ccc(NC(=S)N2CCN(C)CC2)cc1 | 1% | . | 1.5% | -15%
C=CCSc1cc(C)nc2c(-c3ccccc3)cnn12 | -25% | -13 | ? | -72%
CCn1ncc(C2=NOC(C(=O)NCc3ccccc3)C2)c1C (centres undefined) | 1% | -7 | 2.9% | 10%
Cc1c(Cl)cccc1NC(=O)CNC(=O)C1CC(=O)N(C2CCCC2)C1 (centres undefined) | 0% | . | 1.8% | .
O=C(O)c1cccc(-c2nnn(Cc3ccccc3Cl)n2)c1 | 0% | 3 | 2.8% | -73%
Cc1ccc(C)c(NC(=O)CN(C)C(=O)c2ccc3[nH]c4c(c3c2)CC(C)CC4)c1 (centres undefined) | 5% | . | 2.5% | .
O=C(CSc1nc(C2CC2)nc2ccccc12)Nc1ccc2c(c1)OCCO2 | -5% | 3 | -4.8% | -4%
O=C(c1ccccc1)N(Cc1nc2ccccc2c(=O)[nH]1)C1CCCC1 | 9% | 12 | 4.1% | 1%
COc1ccc(/C=C2\SC(=O)N(CCNC(=O)Cn3cnnn3)C2=O)cc1 | -6% | -4 | 2.9% | -41%
COc1ccc(C2CC(c3cccc(Cl)c3)=NN2c2ccc(S(N)(=O)=O)cc2)cc1 (centres undefined) | ? | . | ? | .
Nc1nnnn1/N=C/c1cccc(O)c1 | 18% | 1 | -4.5% | -8%
CNC(=S)NC12CC3CC(CC(C3)C1)C2 | -10% | 7 | 3.7% | 0%
O=C(Nc1ccc(Br)cc1F)c1sccc1-n1cccc1 | 0% | 2 | -6.8% | -15%
Cc1cc(OCC(=O)OCC(=O)N(C)C2CCS(=O)(=O)C2)ccc1Cl (centres undefined) | -9% | . | -3.2% | .
Nc1nc(N)c(N=Nc2ccc(Cl)cc2)c(=O)[nH]1 | 8% | -9 | -2.1% | -3%
CCCCOc1ccc(/C=C/C(=O)NC2=Nc3ccccc3NC(C)=C2C(=O)OCC)cc1OC | -14% | -17 | -1.1% | -8%
Cc1cc(C(=O)Nc2ccc(Cl)cc2)c(C)n1-c1ccccc1 | -24% | -2 | -1.5% | 30%
C=CCn1c(COc2ccc(OC)cc2)nnc1SCn1nnc2ccccc2c1=O | 2% | 3 | -0.1% | -6%
Cc1ccc(Cn2ncc3c(N4CCN(Cc5ccc(Cl)cc5)CC4)ncnc32)cc1 | -2% | -6 | -4.3% | 7%

Next part:
mol | Rango dissoc inh | GLA inh pH 4.5 | Rango-impB inh | miR-21 FLuc
COCCCN1CN(Cc2ccccc2)CNC1=S | -15% | 5 | 1.2% | -1%
Cc1cnc(C)c(N2CCN(C(=O)C3CCC(=O)N(CCc4cccc(F)c4)C3)CC2)n1 (centres undefined) | -2% | . | -2.5% | 2%
COC(=O)c1ccc(NC(=O)CCN2C(=O)NC(C)(C)C2=O)cc1 | -21% | . | 0.8% | .
CCNc1nc(NCC)n2c(SCC(=O)NC34CC5CC(CC(C5)C3)C4)nnc2n1 | 14% | -6 | -4.2% | -6%
Cc1ccccc1C(=O)NC1CCN(Cc2nnnn2C2CCCC2)CC1 | 7% | 3 | 1.9% | 1%
c1ccc(C2NCCNC2c2ccccc2)cc1 (centres undefined) | -1% | . | -5.1% | .
CSc1nsc(SCC(=O)Nc2ccc(Cl)c(C(=O)O)c2)n1 | 6% | . | 1.5% | 1%
Cc1sc(-c2ccncc2)nc1OC(=O)c1ccc(Cl)cc1 | ? | -1 | ? | 1%
O=C(O)/C=C/c1cccc(NC(=O)c2ccccc2)c1 | 0% | 2 | -0.6% | 0%
Cc1noc(C)c1CSCC(=O)N(C)CC(=O)Nc1ccc(Cl)c(C(F)(F)F)c1 | 19% | . | 0.6% | .
COc1ccc(OC)c(S(=O)(=O)Nc2ccc(-c3ccc4nnc(C)n4n3)cc2)c1 | -19% | . | 4.5% | .
CCn1ccnc1CNC(=O)CC1C(=O)NCCN1Cc1ccc(OC)cc1OC (centres undefined) | 7% | 1 | 0.1% | -4%
c1ccc(N2CCN(CC3CCCCC3)CC2)cc1 | 12% | . | 1.6% | -4%
CN(C)c1nc(N)c([N+](=O)[O-])c(N2CCCCCC2)n1 | -6% | . | 0.3% | -9%
CC1CCCCC12NC(=O)N(CC(=O)OCc1ccccc1F)C2=O (centres undefined) | -11% | . | 1.6% | .
CCN1CCN(C(c2cc3cccc(C)c3[nH]c2=O)c2nnnn2Cc2ccccc2)CC1 (centres undefined) | -15% | -12 | -0.6% | 2%
C=CCN(CC=C)CC(=O)Nn1c(C)ccc1C | -8% | . | 0.9% | .
COc1cc2c(C(=O)N3CCN(c4ccccc4C)CC3)c(C)oc2cc1Br | 10% | 1 | -0.5% | -1%
COc1ccc(-c2cc(C(=O)Nc3cc(C)on3)c3ccccc3n2)c(OC)c1 | 2% | . | 3.7% | 5%
C/C(CC(=O)Nc1ccc2c(c1)OCCO2)=N\NC(=O)COc1ccc(C)cc1 | -6% | . | 1.4% | -1%
CCn1c(SCc2ccc(C)cc2)nnc1C1CCN(S(=O)(=O)c2ccc(OC)cc2)CC1 | 12% | -2 | 5.7% | 12%
CCOC(=O)C1CCN(C(=O)c2cccc(S(=O)(=O)N3CCCc4ccccc43)c2)CC1 | 19% | . | -0.7% | .
O=C(CCCn1c(=S)[nH]c2ccsc2c1=O)NCc1ccco1 | 2% | 4 | 0.0% | -1%
COc1cccc(-c2nn(C)c3sc(C(=O)NCc4ccco4)cc23)c1 | -3% | -9 | -1.4% | 13%
O=C(NCCc1ccccc1)C1CCCN1C(=O)Nc1ccc(F)cc1 (centres undefined) | 1% | 3 | 3.6% | -1%
O=C(Cc1cccs1)Nc1ccon1 | -5% | -6 | ? | 0%
COc1cccc(NC(=O)c2ccccc2C(F)(F)F)c1 | 17% | -4 | 3.2% | -10%
COC(=O)Cc1c(C(=O)OC)nnn1-c1cccc(C(F)(F)F)c1 | 4% | 8 | 2.3% | -2%
CCOC(=O)C1=C(C)NC(C)=C(C(=O)OCC)C1C(=O)OCC(=O)NC(C)c1ccccc1 (centres undefined) | -20% | . | -1.8% | .
CN=C(Nc1ccc(C(=O)OC)s1)c1ccccc1 | -22% | 2 | -1.4% | -13%
CCCCNC(=O)c1c(C)cc(=O)oc1C | 0% | -4 | 4.2% | -5%
Cn1ncnc1SCc1cn2cccnc2n1 | 2% | 2 | 0.3% | -2%
COc1cccc2c1cc1c(=O)n(CC(=O)N3CCCCCC3)nc(C)n12 | 28% | . | -0.5% | -4%
CC(=O)c1ccc2c(ccc3ccccc32)c1 | 16% | -5 | 0.9% | -58%
COC(=O)c1ccc(-n2nnnc2SCC(=O)Nc2cc(OC)ccc2OC)cc1 | -3% | 5 | -1.5% | -5%

Single records (already shown). Screens in order: Rango dissoc inh | GLA inh pH 4.5 | Rango-impB inh | miR-21 FLuc
Results for `O=C(NCCc1ccccc1)C1CCCN1C(=O)Nc1ccc(F)cc1` (centres undefined) → 1% | 3 | 3.6% | -1%
Results for `COc1cccc(NC(=O)c2ccccc2C(F)(F)F)c1` → 17% | -4 | 3.2% | -10%

Bioassay records: PubChem BioAssay, National Center for Advancing Translational Sciences (NCATS)

Only part of the results is shown, so the mix of outcomes need not match the whole.
